Mtb betalactam = beta-lactam sensitization of Mtb H37Rv, H37Rv; inhibition, % at 25 µM; M. tuberculosis H37Rv growth with meropenem, percent inhibition; hits of this screen are not shown here; hit rate 0.27% among 330,000;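 active = about 74% or more and at least 40 points above the plate without the antibiotic, then above 30% in a dose series; inconclusive = first-round hits that could not be retested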;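 also: growth measured after seven days incubation then overnight dye step; 0% = bacteria only wells and 100% = bacteria with antibiotic; twin plates without the antibiotic show which effects depend on it; some results filed as inactive read as strong as hits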
YopH PTP inh = YopH tyrosine phosphatase inhibitors, primary screen, biochemical, fluorescence Ex485/Em525; YopH tyrosine phosphatase [Yersinia enterocolitica]; inhibition, %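 (about 10 µM by stock and volumes)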; hit rate 0.16% among 140,000; AID 898, 2007;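 active = inhibition of 50% or more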;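 also: controls were vehicle for no effect and minimum signal wells for full effect; inactives centre near -20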
RecA intein inh = Mtb RecA intein splicing inhibitors, primary screen, biochemical, fluorescence, HTS; Protein RecA (Mycobacterium tuberculosis (strain ATCC 25618 / H37Rv)), P9WHJ3; cell-free RecA intein splicing; inhibition, %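 (about 9 µM by stock and volumes)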; hit rate 0.75% among 290,000; AID 2221, 2009; in the data active = inhibition above about 30%; inconclusive = no clear call, values can overlap the other calls;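 also: 0% = vehicle wells and 100% = reference inhibitor control wells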
Target sequence (P9WHJ3 whole entry, looked up): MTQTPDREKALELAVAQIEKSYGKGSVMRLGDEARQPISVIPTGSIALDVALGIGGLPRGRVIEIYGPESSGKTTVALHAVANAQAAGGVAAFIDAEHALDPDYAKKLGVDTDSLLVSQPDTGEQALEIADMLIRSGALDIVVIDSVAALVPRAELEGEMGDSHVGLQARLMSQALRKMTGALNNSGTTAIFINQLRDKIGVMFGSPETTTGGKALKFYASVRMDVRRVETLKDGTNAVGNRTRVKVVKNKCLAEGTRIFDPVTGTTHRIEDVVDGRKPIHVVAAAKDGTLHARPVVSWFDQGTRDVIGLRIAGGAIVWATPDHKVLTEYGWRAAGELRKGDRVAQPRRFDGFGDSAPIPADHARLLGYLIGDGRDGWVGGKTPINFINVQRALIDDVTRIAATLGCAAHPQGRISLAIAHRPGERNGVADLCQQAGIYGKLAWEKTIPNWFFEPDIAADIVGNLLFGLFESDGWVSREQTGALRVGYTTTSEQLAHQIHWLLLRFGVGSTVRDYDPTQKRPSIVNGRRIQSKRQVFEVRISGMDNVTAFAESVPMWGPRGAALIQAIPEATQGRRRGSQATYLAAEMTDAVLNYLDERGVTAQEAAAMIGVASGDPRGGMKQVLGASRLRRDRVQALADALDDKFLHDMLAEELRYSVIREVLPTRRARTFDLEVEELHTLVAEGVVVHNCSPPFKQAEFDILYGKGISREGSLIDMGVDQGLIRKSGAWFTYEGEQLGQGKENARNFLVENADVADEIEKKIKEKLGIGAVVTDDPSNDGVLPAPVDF
Arbovirus anti = antivirals against arbovirus infection, primary screen, cell-based, full library, 10K replicate subset; arbovirus infection cell-based antiviral screen; AID 1251, 2008; hit rate 0.37% among 200,000; inhibition, % at 10 µM;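 active = inhibition from about 30%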;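 also: bluetongue infection of BSR cells; cell survival read as ATP light after 72 h; 0% = infected wells without compound and 100% = uninfected wells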
Mtb H37Rv = M. tuberculosis H37Rv growth inhibitors, H37Rv strain (AID 1626). M. tuberculosis H37Rv growth inhibition; higher % means a stronger effect. inhibition, % at 10 µM, or IC50 in µM where a hit was titrated. hit rate 0.95% among 220,000;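 active = confirmed in a dose series; inconclusive = inhibition above 80% but not taken into the dose series; inactive = below 80% or under 30% at every dose of the series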;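 also: bacteria incubated seven days before Alamar blue readout; 0% = bacteria only wells and 100% = bacteria with antibiotic wells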
Arbovirus anti repeat = further read-out of Arbovirus anti, marked with its call; inhibition, %; measured here: 10K subset replicate screen; many hits read low in the repeat;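 first of two repeat runs on a subset; 0% = infected and 100% = uninfected wells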
Starred values were filed as active, the others as inactive; ? = inconclusive; / = not tested or not shown. Not all compounds are listed; rates above refer to the full screens.

SMILES	Mtb betalactam	YopH PTP inh	RecA intein inh	Arbovirus anti	Mtb H37Rv	others
CCCNC(=O)CN(Cc1ccco1)S(=O)(=O)c1ccc(OCC)cc1	-8	-17	1.8	1	-5%
CCOC(=O)CNC(=O)CSc1nc2ncc(Br)cc2[nH]1	-10	-13	-1.3	17	-11%
COc1ccc(N2CCN(c3oc(COc4ccc(Cl)cc4Cl)nc3C#N)CC2)cc1	31	-34	-0.1	-15	17%
CC(C)CC(NC(=O)OC(C)(C)C)c1cn([C@@H](Cc2cc3ccccc3[nH]2)C(=O)N2CCN(C(=O)OC(C)(C)C)CC2)nn1 (some centres undefined)	-6	/	20	-16	/
COC(=O)CCC(=O)NN1C(=O)c2ccccc2C1=O	4	/	/	2	2%
CC1CCN(c2nnc(N)s2)CC1	/	-28	1.2	-5	-9%
O=[N+]([O-])c1ccc(-c2cnc[nH]2)cc1	0	/	1.2	/	-7%
COc1cccc(NC(=O)C(=O)NCc2ccncc2)c1	-2	/	-4.1	-3	2%
COc1ccc2c(c1)c1nc3ccccc3nc1n2Cc1ccc(OC)c(OC)c1	1	-17	1.0	33*	10%
CCN(CC)C(=O)CCc1nnc(CCc2c[nH]c3ccccc23)o1	3	/	2.1	-12	-4%
O=C(CCN1C(=O)c2ccccc2C1=O)NC(=S)Nc1ccccc1	-4	-18	1.9	4	6%
CCCC1CCC(c2ccc(C(N)=O)cc2)CC1 (centres undefined)	15	-2	1.7	14	12%
COC(=O)N1CC=CC1(C)C(=O)NCc1cc(F)cc(C(F)(F)F)c1 (centres undefined)	-8	-29	-0.1	-4	-12%
CCc1ccc(OCC(=O)NC(=S)Nc2ccc(C(C)=O)cc2)c(Br)c1	-1	18	-0.9	3	-14%
O=C(CNC(=O)c1ccco1)Nc1cccc(Cl)c1	1	/	-0.9	/	/

Structures shown so far with a furan ring, fused or not, in the order listed:
SMILES	Mtb betalactam	YopH PTP inh	RecA intein inh	Arbovirus anti	Mtb H37Rv	others
CCCNC(=O)CN(Cc1ccco1)S(=O)(=O)c1ccc(OCC)cc1	-8	-17	1.8	1	-5%
O=C(CNC(=O)c1ccco1)Nc1cccc(Cl)c1	1	/	-0.9	/	/

Further results:
SMILES	Mtb betalactam	YopH PTP inh	RecA intein inh	Arbovirus anti	Mtb H37Rv	others
CCCCN(C(=O)/C=C/c1ccc(OC)cc1)C1CCS(=O)(=O)C1 (centres undefined)	-9	/	0.1	/	/
Cc1ccc(SCc2cc(=O)[nH]c(/N=C(\N)Nc3ccc(C)c(C)c3)n2)cc1	-7	-19	-0.7	-14	-3%
CCC(C)(C)NC(=O)C1CCN(S(=O)(=O)c2cccs2)CC1	/	/	-0.5	4	6%
CCOc1ccc(S(=O)(=O)n2cc(F)c(=O)[nH]c2=O)cc1[N+](=O)[O-]	7	/	-7.4	/	/
c1ccc(C2[C@H]3CN(CC4CCCCC4)[C@H](c4ccccc4)C34CC2(c2cccnc2)C4)cc1 (some centres undefined)	97	/	24	/	15µM*
CC(=O)N1CCCc2cc(S(=O)(=O)N3CCC(C)CC3)ccc21	-8	-29	-3.9	8	-10%
CCOc1ccc(-n2c(COc3ccccc3)nnc2SCC(N)=O)cc1	-6	-49	1.4	3	-5%
O=C(CNC(=O)c1ccccc1)NCC(=O)OCC(=O)c1ccccc1	1	/	-0.6	6	-1%
Clc1ccc(NC2=NCCC2)cc1Cl	-3	-21	-0.9	2	-1%
CC(=O)NC(Cc1ccccc1)C(C)=O (centres undefined)	5	/	-1.5	1	-7%
CCOC(=O)C1CCCN(CC(=O)Nc2cccc(C(C)=O)c2)C1 (centres undefined)	2	/	-1.9	-2	-5%
CCOC(=O)N1CCN(C(=O)CNC(=O)c2ccc(Br)cc2)CC1	-19	/	-0.5	/	/
CCO[C@@H]1OC(C(=O)N2CCCCCCC2)=C[C@H](c2ccc(C(F)(F)F)cc2)[C@H]1CCCO	-2	/	3.8	-15	/
c1ccc(CCc2cn(C[C@H]3CC[C@@H]([C@@H]4CC[C@H](Cn5cc(CCc6ccccc6)nn5)O4)O3)nn2)cc1	3	/	-2.6	/	/
CCOC(=O)c1c(SCc2ccccc2)n[nH]c1N	0	/	1.2	/	/
CC1Sc2ccc(S(=O)(=O)N3CCC(C(N)=O)CC3)cc2NC1=O (centres undefined)	-8	/	3.5	/	/
O=C(OCC(=O)N1CCN(C(=O)c2ccco2)CC1)C1=COCCO1	0	-10	-3.4	-2	-14%	Arbovirus anti repeat=0
O=C1Nc2ccccc2/C1=N/N=C/c1cccc(O)c1	2	/	3.2	/	0%
CC(=O)c1c(C(C)=O)c(C)n(-c2ccc(N)cc2)c1C	38	-11	0.9	1	/
CC(C)(C)c1ccc(S(=O)(=O)N2CCC(N3CCCCC3)CC2)cc1	-1	/	2.7	/	/
O=c1oc2ccccc2n1Cc1cccc(C(F)(F)F)c1	0	/	1.5	/	/
O=C(Nc1ccccc1Cl)C1C(c2ccccc2)C1(Cl)Cl (centres undefined)	57	/	7.2	/	/
O=S(=O)(NCc1ccccc1)NCc1ccccc1	2	/	-0.7	6	/
CCOC(=O)CN1C(=O)N(c2ccccc2OC)S(=O)(=O)c2ccccc21	-1	/	-0.4	/	/
NC(=O)CSc1nnc(-c2ccccn2)n1Cc1ccco1	3	/	-1.5	/	0%
S=C(c1ccccc1)N1CCSCC1	0	/	9.1	/	/
CSCCC(NC(=O)c1ccc(Cl)cc1Cl)C(=O)NCc1ccccn1 (centres undefined)	-3	/	3.2	/	/
O=C(c1cccnc1)N1CCN(S(=O)(=O)c2ccc3ccccc3c2)CC1	14	-9	-1.2	14	-1%
Cc1ccc(N)cc1CN1CCCC1=O	-5	-6	4.7	4	-4%
COc1ccc(Nc2nc3ccccc3nc2NS(=O)(=O)c2cccs2)cc1	-2	-9	-4.4	18	-2%

Gathered by group: those above containing a thiophene ring, fused or not
SMILES	Mtb betalactam	YopH PTP inh	RecA intein inh	Arbovirus anti	Mtb H37Rv	others
CCC(C)(C)NC(=O)C1CCN(S(=O)(=O)c2cccs2)CC1	/	/	-0.5	4	6%
COc1ccc(Nc2nc3ccccc3nc2NS(=O)(=O)c2cccs2)cc1	-2	-9	-4.4	18	-2%

Four structures already listed, arranged by formula weight, ascending:
SMILES	Mtb betalactam	YopH PTP inh	RecA intein inh	Arbovirus anti	Mtb H37Rv	others
Cc1ccc(N)cc1CN1CCCC1=O	-5	-6	4.7	4	-4%
O=C1Nc2ccccc2/C1=N/N=C/c1cccc(O)c1	2	/	3.2	/	0%
O=C(Nc1ccccc1Cl)C1C(c2ccccc2)C1(Cl)Cl (centres undefined)	57	/	7.2	/	/
CCOC(=O)CN1C(=O)N(c2ccccc2OC)S(=O)(=O)c2ccccc21	-1	/	-0.4	/	/

(more compounds)
SMILES	Mtb betalactam	YopH PTP inh	RecA intein inh	Arbovirus anti	Mtb H37Rv	others
CCOc1cc(/C=C(\C#N)C(=O)NCC2CCCO2)ccc1O (centres undefined)	-2	-28	-3.4	14	0%
CC(C)c1ccccc1OCCNC(=S)NC(=O)c1cccnc1	7	/	4.4	-3	4%
O=C(NCCN1CCOCC1)c1noc2c1CCc1ccccc1-2	0	-22	0.3	5	-2%
CC(C)(C)OC(=O)N1CCC[C@@H]1C(=O)N1CCC(C(=O)O)CC1	-5	-36	-2.0	7	-7%
CCN(CC)CCNC(=O)Cn1cnc2sc(C)c(S(=O)(=O)N3CCN(c4ccccc4OC)CC3)c2c1=O	-5	/	-2.5	/	/
NC(=O)c1ccc(NC(=O)c2ccc3c(c2)OCO3)cc1	9	-16	1.4	2	-10%
Cn1cc([N+](=O)[O-])c(C(=O)Nc2ccc(-c3nc4ccccc4o3)cc2)n1	-7	/	-0.7	/	-3%
CC(C)(C)CN1C(=O)C(=O)NC[C@H]1Cc1cccc2ccccc12	-4	/	-0.1	/	-1%
COc1cc2[nH]c(=S)n(NC(=O)CC(C)C)c(=O)c2cc1OC	5	15	-1.0	5	-4%
CCOc1c(Br)cc(CNCc2cccs2)cc1OC	0	-13	1.6	15	8%
O=C1C2C3CCC(C3)C2C(=O)N1CNc1ccccc1 (centres undefined)	-2	-30	-1.7	-2	-2%
CCc1ccc(NC(=S)Nn2cnnc2)cc1	-6	/	-3.6	4	-1%
C#CCOCCOCCOCCNc1nc(N2CCN(C(=O)Cn3cc(CCO)nn3)CC2)nc(N2CCN(C(=O)[C@H](C(C)C)n3cc(CCO)nn3)CC2)n1	-12	-22	1.5	10	-8%
NS(=O)(=O)c1ccc(NC(=O)CN2C(=O)CCC2=O)cc1	-4	/	0.4	/	-5%
N#CCC(=O)N1CCn2c1nc1ccccc12	-16	-25	-0.4	6	2%
CCCn1c(SC(C)C(=O)NCC2CCCO2)nc2sc(CC)cc2c1=O (centres undefined)	-1	/	1.2	/	/
Cc1ccc(C)c(NC(=O)CSc2nnc(CNC(=O)c3ccco3)n2C)c1	2	/	4.2	/	/
OCCC1CN(Cc2ccc(F)cc2)CCN1CCc1ccccc1 (centres undefined)	4	/	2.7	/	/
CN1c2ccsc2/C(=N/Nc2ccc(F)cc2)CS1(=O)=O	61	/	14	-20	?
Cc1cc2nc(SC(C)C(=O)O)[nH]c2cc1C (centres undefined)	13	-33	0.9	-2	-4%
CC(=O)Nc1ccc(NC(=O)c2ccccc2Sc2ccc([N+](=O)[O-])cc2Cl)cc1	2	-30	0.7	-10	3%
O=C(CN1C(=O)C2CC=CCC2C1=O)NC1CCCc2ccccc21 (centres undefined)	-4	-2	-2.6	-6	-11%
O=C(c1cccc(Cl)c1)N(Cc1cccs1)C1CCS(=O)(=O)C1 (centres undefined)	-3	-12	-1.0	4	8%
O=C(CCC1CCCCC1)Nc1nncs1	0	/	0.4	/	/
Cc1c(CCC(=O)N2CCC[C@H]2C(=O)O)c(=O)oc2cc3oc4c(c3cc12)CCCC4	4	/	13	/	/
COc1ccc(Nc2nc(-c3cccnc3)nc3ccccc23)cn1	2	/	5.9	/	/
CCCC(=O)Nc1cccc(C(=O)Nc2nccs2)c1	-2	-24	4.4	13	0%	Arbovirus anti repeat=2
O=C(CCNS(=O)(=O)c1ccccc1)NCCCSc1ccccc1	-11	/	-3.1	/	/
COC(=O)Cc1c(O)ccn(CCc2ccccc2)c1=O	-4	/	1.2	9	3%
CN1CCN(CC(=O)Nc2sc3c(c2C#N)CCC(C(C)(C)C)C3)CC1 (centres undefined)	/	-29	/	-39	-5%
Brc1c(CSc2nc3ccccc3s2)nc2ncccn12	2	-21	0.3	7	-9%

Among those listed so far, these contain fluorine:
SMILES	Mtb betalactam	YopH PTP inh	RecA intein inh	Arbovirus anti	Mtb H37Rv	others
COC(=O)N1CC=CC1(C)C(=O)NCc1cc(F)cc(C(F)(F)F)c1 (centres undefined)	-8	-29	-0.1	-4	-12%
CCOc1ccc(S(=O)(=O)n2cc(F)c(=O)[nH]c2=O)cc1[N+](=O)[O-]	7	/	-7.4	/	/
CCO[C@@H]1OC(C(=O)N2CCCCCCC2)=C[C@H](c2ccc(C(F)(F)F)cc2)[C@H]1CCCO	-2	/	3.8	-15	/
O=c1oc2ccccc2n1Cc1cccc(C(F)(F)F)c1	0	/	1.5	/	/
OCCC1CN(Cc2ccc(F)cc2)CCN1CCc1ccccc1 (centres undefined)	4	/	2.7	/	/
CN1c2ccsc2/C(=N/Nc2ccc(F)cc2)CS1(=O)=O	61	/	14	-20	?
